StopGo FLuc: FMDV 2A StopGo reporter, firefly signal. HEK cells with a luciferase reporter of 2A StopGo recoding. Potency, µM (highest dose often 57.5 µM), without a hit: at the top dose signal change, negative = less light. 120,000 tested, 0.23% active. AID 1745856; active = well fitted falling curve with a large enough effect; inconclusive = small, poorly fitted or top-dose-only effect; inactive = no such curve, though single readings can be large or run the other way; note: nearly all actives have a fitted effect of over 60% in size; overnight with compound
StopGo RLuc: FMDV 2A StopGo reporter, Renilla signal. HEK cells with a luciferase reporter of 2A StopGo recoding. Potency, µM (top dose mostly 57.5 µM), for the others: top-dose signal change, negative = less light. 120,000 tested, 0.32% active; active means well fitted falling curve with a large enough effect; inconclusive means small, poorly fitted or top-dose-only effect; inactive means no such curve, though single readings can be large or run the other way; note: nearly all actives have a fitted effect of over 55% in size; overnight with compound
An asterisk follows results filed as active; ? = inconclusive; & = joins results of further samples; [ ] = remark or other dose. % is set by controls: 0 for no effect and ±100 for the full control effect; potency is the fitted concentration of half-maximal effect.

cpd	molecule	StopGo FLuc	StopGo RLuc
1	O=C(Nc1nnc(S(=O)(=O)N2CCN(c3ccc(F)cc3)CC2)s1)c1ccc(Cl)cc1	29%	-2%
2	CN1C(C(=O)NC(C)(C)C)=CC(c2ccc3c(c2)OCO3)=NS1(=O)=O	0%	9%
3	COCCc1nn2c(=O)cc(COC(=O)c3ccc(Br)cc3)nc2s1	0%	-17%
4	O=C(OCC(=O)N1CCCC1)c1cccc(Br)c1	23%	3%
5	CN(Cc1ccncc1)C(=O)CCCNC(=O)C1CC1	2%	3%
6	O=[N+]([O-])c1ccccc1S(=O)(=O)NC(c1ccccc1)c1cccs1 (stereo not drawn)	1%	130%[activator]
7	Cc1ccccc1-c1nccc2ccccc12	124%[activator]	21%
8	O=S(=O)(CCN1CCCCC1)c1ccccc1	-3%	-7%
9	CC(C)C(=O)N(C)N(C)C(=O)C(C)C	11%	-2%
10	O=C(O)CSc1c2c(nc3cc(C(=O)NC4CCCCCC4)ccc13)CCCC2	17%	-11%
11	COc1ccc(CCNC(=O)C2CCCN(c3nc(C)nc4onc(C)c34)C2)cc1OC (stereo not drawn)	5%	-4%
12	Cc1ccc(CNC(=O)CCS(=O)(=O)c2cc(Br)cc3c2N(C(=O)C2CC2)CC3)cc1	-2%	82%[activator]
13	CCn1c(CCc2ccc(NC(=O)c3ccc(C#N)cc3)cc2)nc2ccccc21	18%	2%
14	O=c1oc2ccccc2cc1-c1nc(-c2cccnc2)no1	123%[activator]	1%
15	COc1cc(CNC(=O)c2nccnc2N)ccn1	-9%	?
16	Cc1cc(=O)c(C(=O)N2CCN(Cc3ccccc3)CC2)nn1-c1ccccc1F	-4%	-8%
17	Cc1ccc(CCNC(=O)c2c[nH]c3ccc(S(=O)(=O)Nc4ccc(C)cc4C)cc3c2=O)cc1	-23%	-5%
18	CC1CCC/C(=C(\C#N)C(N)=S)C1 (stereo not drawn)	5%	-1%
19	O=C(CN1CCCCC1c1nc2ccccc2s1)NC(=O)Nc1ccc2c(c1)OCO2 (stereo not drawn)	0%	14%
20	O=C(C1=C(c2ccccc2)SCCO1)N(Cc1cccs1)C1CCS(=O)(=O)C1 (stereo not drawn)	-1%	8%
21	O=Cc1cn[nH]c1-c1cccs1	17%	10%
22	COc1ccc(C2c3c(-c4ccccc4O)n[nH]c3C(=O)N2Cc2ccco2)cc1 (stereo not drawn)	-18%	-1%
23	CCc1ccc(N2CC(c3nc4ccccc4n3Cc3ccccc3C)CC2=O)cc1 (stereo not drawn)	-24%	12%
24	CC(Oc1ccc2ccc(=O)oc2c1)C(=O)NC(N)=O (stereo not drawn)	6%	0%

Pulled by compound from above, 2 records:
cpd	molecule	StopGo FLuc	StopGo RLuc
19	O=C(CN1CCCCC1c1nc2ccccc2s1)NC(=O)Nc1ccc2c(c1)OCO2 (stereo not drawn)	0%	14%
18	CC1CCC/C(=C(\C#N)C(N)=S)C1 (stereo not drawn)	5%	-1%

(listing goes on)
cpd	molecule	StopGo FLuc	StopGo RLuc
25	COc1ccc(Cc2nc(P(=O)(OC)OC)c(NCc3cccnc3)o2)cc1	8%	9%
26	COc1ccc(NC(=O)CSc2nc(-c3ccco3)cc(C(F)(F)F)n2)cc1OC	?	0%
27	COc1ccc(NC(=O)CN2CCN(CC(=O)Nc3ccccc3F)CC2)cc1OC	-19%	-1%
28	Cc1ccc(NC(=O)c2cc3c(Cl)nc4ccc(C)cc4c3s2)c(Cl)c1	2%	-5%
29	O=C(NC(C1CC1)C1CC1)c1ccccc1F	-8%	6%
30	Cc1ccc(C(=O)NCC(c2cccnc2)N2CCc3ccccc3C2)cc1C (stereo not drawn)	?	?
31	Cc1ccc(C)c(N2CCN(C(=O)CCS(=O)(=O)c3ccc4c(c3)oc(=O)n4C)CC2)c1	?	?
32	CC[C@@H](C)[C@H](NC(=O)c1sc(-c2ccccc2F)nc1C)C(=O)O	107%[activator]	0%
33	Cc1nc2nc(SCC(=O)Nc3ccccc3Cl)nn2c(C)c1Cc1ccccc1	0%	-11%
34	COC(=O)c1cc(NCc2ccc(-c3ccccc3)cc2)ccc1N1CCOCC1	-1%	-1%
35	Cc1cc2oc(=O)cc(COC(=O)Cc3n[nH]c(=O)c4ccccc34)c2cc1C(C)C	4%	-4%
36	COc1cc2c(cc1OC)C(C)N(C(=O)c1ccccc1Br)CC2 (stereo not drawn)	22%	30%[activator]
37	CSc1ccc(N2CC(C(=O)N(C)Cc3cnn(Cc4ccccc4)c3)CC2=O)cc1 (stereo not drawn)	-2%	18%
38	Cc1ccc2nc(NC(=O)Cn3c(=O)oc4ccccc43)sc2c1	116%[activator]	52%[activator]
39	Nc1nccnc1C(=O)NCCc1cccc2cccnc12	0%	15%
40	CC(=O)Nc1ccc(NC(=O)C(C)OC(=O)c2cn(C)c3ccccc23)cc1 (stereo not drawn)	-6%	-13%
41	O=C(c1ccc2ncsc2c1)N1CCN(c2nc3ccc(F)cc3s2)CC1	?	?
42	O=C(CSc1ncccc1C(=O)Oc1ccccc1Cl)Nc1ccc(C(F)(F)F)cc1Cl	75%[activator]	-4%
43	CC1=C(C(N)=O)C(c2ccc(C)cc2)n2nc(SCc3ccccc3)nc2N1 (stereo not drawn)	12%	0%
44	O=C(Nc1ccc2nc(SCCOc3ccccc3)sc2c1)c1cccs1	1%	2%
45	O=C(/C=C/c1cccc([N+](=O)[O-])c1)c1ccc(OC(F)F)cc1OC(F)F	?	?
46	Cc1cccc(N2CCN(C(=O)CCNS(=O)(=O)c3ccc4c(c3)CCN4C(=O)C3CC3)CC2C)c1 (stereo not drawn)	?	?
47	CC(C)(C)C(=O)Oc1ccc2c(=O)c(-c3ccccc3)coc2c1	139%[activator]	-3%
48	CC(C)NC(=O)CNC(=O)CCc1ncc(-c2ccc(Cl)cc2)o1	21%	-6%
49	O=C1C(Nc2ccccc2)=CC(c2ccc3c(c2)OCO3)N1c1ccccc1 (stereo not drawn)	153%[activator]	34%[activator]
50	CC(NC(=O)c1cccnc1N(C)C)c1ccc(F)cc1 (stereo not drawn)	8%	5%
51	O=C(Cc1cccs1)Nc1c(NC2CCCC2)c2ccccc2oc1=O	-4%	8%
52	Cc1ccc(-c2ocnc2C(=O)Nc2ccc(C(C)C)cc2)s1	69%[activator]	-10%
53	NC(=O)NC(=O)COC(=O)c1cc(-c2ccco2)nc2ccccc12	-3%	-13%
54	Cc1cc2oc(=O)cc(CN3CCCCCC3)c2cc1Cl	20%	-9%
55	CCCN(C(=O)c1sc2nc3n(c(=O)c2c1C)CCCC3)c1ccccc1C	-33%	?
56	Cn1c(=O)[nH]c(=O)c2c1nc(Sc1nc3ccccc3[nH]1)n2CCCc1ccccc1	8%	3%
57	COc1cc(Cl)c(C)cc1NC(=O)C(C)N1CCN(S(=O)(=O)c2ccccc2C#N)CC1 (stereo not drawn)	-21%	-17%
58	Cc1ccc(-n2c(SCC(N)=O)nc3c(oc4ccccc43)c2=O)cc1C	?	1%
59	Cc1ccc(C(=O)NCCc2cccnc2)cc1	61%[activator]	9%
60	CC1CCN(S(=O)(=O)c2ccc3ncn(CC(=O)Nc4ccccc4C(F)(F)F)c(=O)c3c2)CC1	1%	1%
61	COCCCNC(=O)Cn1nc(N2CCN(c3ccccc3)CC2)ccc1=O	-15%	-18%
62	Cc1ccc(CN2CCCn3nc(C(=O)NCC(C)c4ccccc4)cc3C2=O)cc1 (stereo not drawn)	0%	22%
63	CC(Cc1ccccc1)(NC(=O)CN)c1ccccc1 (stereo not drawn)	-12%[11.5 µM]	-2%
64	Cc1ccc(-n2c(SCc3cccc(C#N)c3)nnc2N2CCCC2)cc1	-8%	5%

Part of the list above in another layout.
Each structure is followed by: StopGo FLuc	StopGo RLuc
27	COc1ccc(NC(=O)CN2CCN(CC(=O)Nc3ccccc3F)CC2)cc1OC
→ -19%	-1%
28	Cc1ccc(NC(=O)c2cc3c(Cl)nc4ccc(C)cc4c3s2)c(Cl)c1
→ 2%	-5%
29	O=C(NC(C1CC1)C1CC1)c1ccccc1F
→ -8%	6%
30	Cc1ccc(C(=O)NCC(c2cccnc2)N2CCc3ccccc3C2)cc1C (stereo not drawn)
→ ?	?
31	Cc1ccc(C)c(N2CCN(C(=O)CCS(=O)(=O)c3ccc4c(c3)oc(=O)n4C)CC2)c1
→ ?	?
32	CC[C@@H](C)[C@H](NC(=O)c1sc(-c2ccccc2F)nc1C)C(=O)O
→ 107%[activator]	0%

More results.
cpd	molecule	StopGo FLuc	StopGo RLuc
65	CCCCCN1CCN(c2nc3c(c(=O)[nH]c(=O)n3C)n2Cc2ccc(Cl)c(Cl)c2)CC1	-20%	-19%
66	CCc1ccc2oc(C(=O)Nc3c(C)n(C)n(-c4ccccc4)c3=O)cc(=O)c2c1	-7%&-2%	-7%&11%
67	COc1cc(OC)cc(C(=O)Nc2ccccc2-c2nc3ccccc3s2)c1	-18%	-12%
68	COc1cc(OC)cc(C(=O)Nc2ccc3nc(Nc4cccc(C(F)(F)F)c4)cc(C)c3c2)c1	-17%	-13%
69	Cn1c2ccc(F)cc2c2nnc(SCCN3CCCCC3)nc21	16%	2%
70	CCOc1ccc(CCNC(=O)CSc2n[nH]c(-c3ccccc3)n2)cc1OCC	-9%	5%
71	COc1ccccc1C(=O)Nc1ccc(-c2nc3cc(C)ccc3o2)cc1	99%[activator]	-4%
72	CCOc1ccc(CCN2C(=O)CCC2(C)C(=O)NCc2ccc(C)cc2)cc1 (stereo not drawn)	16%	110%[activator]
73	CCOC(=O)c1ccc(CN(Cc2ccccc2C)S(=O)(=O)c2ccc(F)c(C(=O)Nc3cccc(OC)c3)c2)cc1	-12%	91%[activator]
74	CCn1c2ccccc2c2cc(CNCC3CCNCC3)ccc21	?	28µM*
75	CCN1C(=O)CCc2cc(NS(=O)(=O)Cc3ccccc3)ccc21	24%	0%
76	Cc1cc(C(=O)Nc2ccc(Br)cc2F)n(-c2ccccc2)n1	26%	16%
77	Cn1c(=O)[nH]c(=O)c2c1nc(N1CCC(C(N)=O)CC1)n2Cc1ccccc1F	11%	3%
78	Cn1cnc2c1c(=O)n(Cc1cccc(Br)c1)c(=O)n2C	-3%	8%
79	O=C(CNC(=O)c1ccccn1)Nc1cccc2c(=O)[nH][nH]c(=O)c12	12%	6%
80	COc1ccc(Cl)cc1C(=O)OCc1cccc(COC(=O)c2cc(Cl)ccc2OC)c1	16%	16%
81	CCOc1cc(-c2ccc(C)cc2)nc2ccc(C(=O)NCCCN(CC)CC)cc12	-26%	-8%
82	CCN(CC)S(=O)(=O)c1ccc(NC(=O)CN(c2ccc(C)c(Cl)c2)S(C)(=O)=O)cc1	-23%	103%[activator]
83	O=C(CSc1cccs1)NCC1CC1	0%	12%
84	Cc1cccc(/C=C/C(=O)NCCc2ccccn2)c1	178%[activator]	15%
85	Cc1cc(=O)[nH]c(=S)[nH]1	-6%	-3%
86	CCc1nnc(NC(=O)CSc2nccn2Cc2ccc(F)cc2)s1	11%	-10%
87	COC(=O)c1ccc(C(=O)OC)c(NC(=O)c2cc3nc(-c4ccc(C)cc4)cc(C(F)(F)F)n3n2)c1	-11%	-13%
88	COc1ccc(-c2noc(-c3ccc(NC4CCCC4)c([N+](=O)[O-])c3)n2)cc1	-3%	1%
89	CCc1ccccc1NC(=O)Nc1c(NC2CCCC2)c2ccccc2oc1=O	-5%	-9%
90	C=C(C)CN(CC)C(=O)c1nc(-c2cccs2)oc1C	-6%	-2%
91	CC(C)NC(=O)c1cccc(NC(=O)CCCC(=O)O)c1	2%	1%
92	CCOC(=O)C(CC)Oc1ccc2c(=O)c(Oc3cccc(C)c3)c(C(F)(F)F)oc2c1 (stereo not drawn)	3%	4%
93	Cc1cc(C)cc(NC(=O)CN2C(=O)CCc3cc(S(=O)(=O)N4CCCCC4)ccc32)c1	-14%	5%
94	c1coc(CNCc2cccc3[nH]ccc23)c1	90%[activator]	-1%
95	CCc1ccc(NC(=O)C(=O)NCC(c2ccc3c(c2)OCO3)N2CCN(C)CC2)cc1 (stereo not drawn)	-8%&-8%	-13%&-15%
96	O=C(/C=C/c1cc2cc(Cl)ccc2o1)NC1CCCC1	145%[activator]	0%
97	Cc1nn(CC(C)C)c2sc(C(=O)NCc3ccc(S(=O)(=O)N4CCOCC4)cc3)cc12	3%	-4%
98	Cc1cc2c(cc1NC(=O)c1ccc(C(C)(C)C)cc1)n(C)c(=O)c(=O)n2C	-16%	-8%
99	NS(=O)(=O)c1ccc(N/N=C/c2ccc(Cl)c([N+](=O)[O-])c2)c([N+](=O)[O-])c1	6%	14%
100	c1ccc(-c2noc(CSc3nnnn3C3CCCCC3)n2)cc1	98%[activator]	26%
101	O=C(Nc1c(NC2CCCC2)c2ccccc2oc1=O)C1CC1	-6%	-8%
102	O=c1c(S(=O)(=O)c2ccccc2)cn(Cc2ccccc2)c2cc(N3CCCC3)c(F)cc12	16%	12%
103	CN(C)c1ccc(C=Nc2cccc3ccccc23)cc1	40%[activator]	-4%
104	O=C(Cn1nc(-c2ccccc2)ccc1=O)NCc1cccnc1	-5%	-15%
105	CCOC(=O)c1c(S(=O)(=O)N2CCC(C(=O)N3CCN(c4ccccc4F)CC3)CC2)c(C)n(C)c1C	-17%	-10%
106	CCOc1ccc2c(c1)c(=O)c(S(=O)(=O)c1ccc(F)cc1)cn2CC(=O)Nc1ccccc1C	-8%	-4%
107	CCC1CN(C)CCC1(OC(=O)c1ccccc1)c1ccccc1 (stereo not drawn)	5%	24%
108	CCOCCCNC(=O)c1ccc(Cn2c(=O)c3cccn3c3cccnc32)cc1	-6%	1%
109	CCOC(=O)C(NC(=O)/C=C/c1cc(Cl)c(OC)c(OC)c1)C(=O)OCC	0%	-3%
110	Nc1cc(F)ccc1C(=O)OCc1cccc(Cl)c1	2%	5%
111	O=C(NC1CCCCC1)c1cc(Sc2ccccc2Cl)nc2ccccc12	31%[activator]	-5%

Bioassay records: PubChem, National Center for Advancing Translational Sciences (NCATS)

This is a random part of the collection; 0.55% or so of the library scored in one or more.
